Screening data from PubChem.
POLI inh = inhibitors of human DNA polymerase iota; Pol iota fluorescent replication assay, 10 min; Potency, µM (doses to about 115 µM), inactives show at the highest dose activity, negative = inhibition, usual class: inhibitors; 390,000 tested, 1% active; AID 588590; further: potency means the concentration at half of the fitted maximal effect
Target sequence (Q9UNA4 whole entry, looked up): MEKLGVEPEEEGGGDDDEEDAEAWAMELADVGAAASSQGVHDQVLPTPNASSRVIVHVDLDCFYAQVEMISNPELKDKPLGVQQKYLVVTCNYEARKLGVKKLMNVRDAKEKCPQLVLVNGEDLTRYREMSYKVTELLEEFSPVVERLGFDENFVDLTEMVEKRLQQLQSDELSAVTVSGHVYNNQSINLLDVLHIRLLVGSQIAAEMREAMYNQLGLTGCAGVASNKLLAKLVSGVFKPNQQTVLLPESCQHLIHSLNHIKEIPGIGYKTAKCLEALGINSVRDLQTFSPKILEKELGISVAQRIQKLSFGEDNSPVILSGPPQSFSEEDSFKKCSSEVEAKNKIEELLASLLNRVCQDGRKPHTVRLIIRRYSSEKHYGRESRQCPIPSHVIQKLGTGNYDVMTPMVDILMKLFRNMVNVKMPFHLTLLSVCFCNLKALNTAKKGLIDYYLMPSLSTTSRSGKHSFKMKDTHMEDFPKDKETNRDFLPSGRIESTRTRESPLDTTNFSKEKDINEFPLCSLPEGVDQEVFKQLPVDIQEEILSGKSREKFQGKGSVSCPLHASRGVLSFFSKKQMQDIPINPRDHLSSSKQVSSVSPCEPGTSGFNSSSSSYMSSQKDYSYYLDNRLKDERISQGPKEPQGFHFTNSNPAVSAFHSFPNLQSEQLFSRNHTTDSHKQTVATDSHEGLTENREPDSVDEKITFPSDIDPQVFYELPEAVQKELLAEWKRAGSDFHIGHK
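Fluorescent replication assay read twice, at 0 min and 10 min after adding 50 nM (final) substrate. Enzyme (10 nM) and compounds were first incubated 15 min at room temperature; enzyme-free buffer wells were negative controls.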
Anesthetic bind = candidate novel general anesthetic via apoferritin binding; 350,000 tested, 0.074% active; apoferritin/1-aminoanthracene competitive binding, fluorescence; Potency, µM (series often up to 77.5 µM), without a hit: at the top dose activity change, negative = displacement, actives largely listed as inhibitors; further: potency means the concentration at half of the fitted maximal effect; on the % scale 0 is the no-effect control and ±100 the full control effect; nearly all actives have a fitted effect of over 20% in size
Target sequence (P02791 2-175 limits assumed): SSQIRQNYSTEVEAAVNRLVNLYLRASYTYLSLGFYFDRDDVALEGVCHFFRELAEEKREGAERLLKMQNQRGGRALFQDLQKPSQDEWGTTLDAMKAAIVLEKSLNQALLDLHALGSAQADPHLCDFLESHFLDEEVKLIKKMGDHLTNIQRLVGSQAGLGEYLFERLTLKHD
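Probe: 1-aminoanthracene (50% saturated, PBS). Protein: horse-spleen apoferritin, 10 uM. Incubation: 10 min, room temperature. Detection: 380 nm excitation, 535 nm emission. Analysis: normalized response, four-parameter Hill.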
Glioma ERSR ind = ER stress response induction in glioma; AID 602332; 420,000 tested, 0.02% active; Potency, µM, for the others: top-dose activation, most hits filed as activators; U87-MG GRP78 promoter luciferase reporter, 16 h; further: potency means the concentration at half of the fitted maximal effect; series mostly up to about 76 µM; % of control where 0% means no effect; nearly all actives have a fitted effect of over 35% in size
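Stably transfected U87-MG glioma cells carrying a GRP78-based luciferase sensor; 16 h compound incubation. Luminescence end-point read 10 min after Bright-Glo addition at room temperature.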
BLM inh = inhibitors of human Bloom syndrome helicase BLM. recombinant BLM DNA unwinding, fluorescence dequenching. Potency, µM (top dose mostly 56.1 µM), without a hit: at the top dose activity change, negative = inhibition, actives largely listed as inhibitors. 350,000 tested, 0.2% active. AID 2528;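 further: potency means the concentration at half of the fitted maximal effect; plate controls were vehicle for no effect and no enzyme for full effect; nearly all actives have a fitted effect of over 35% in size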
Pol kappa inh = blocks human DNA polymerase kappa activity. Q9UBT6. 400,000 tested, 0.53% active. purified Pol kappa, fluorescent DNA synthesis assay, 10 min. AID 588579. Potency, µM (titrated, usually from 107 µM), inactives show at the highest dose activity, negative = inhibition, most hits filed as inhibitors; further: potency means the concentration at half of the fitted maximal effect; on the % scale 0 is the no-effect control and ±100 the full control effect
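50 nM final substrate added after 15 min RT preincubation of 10 nM Pol kappa with compound; fluorescence read at 0 and 10 min.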
LDHA inh = LDHA (human) enzyme inhibition | activity change, % (values are at about 110 or 230 µM) | 480,000 tested, 0.15% active | purified LDHA, NADH/diaphorase-resazurin fluorescence; active compounds read low; in the data active means activity change below about -30%; inconclusive means mostly about -25% to -30%;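 further: plate controls were DMSO wells for no effect and wells without enzyme for full effect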
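Human LDH5 at 2 nM final in Tris HCl pH 7.4 with 0.06 mM NADH and 0.2 mM pyruvate, reacted 5 minutes at room temperature. Remaining NADH coupled via diaphorase/resazurin; resorufin fluorescence read at 0 and 20 minutes, normalized to enzyme-free and DMSO wells.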
* marks the source's active call; other numbers are inactive results; ? = inconclusive; / = no result given; & = joins results of further samples; [ ] = another dose, or the depositor's remark. Unless noted, the call rests on the fitted dose curve; in most records, active means well fitted curve in the direction sought with a large enough effect; inconclusive means small, poorly fitted or top-dose-only effect, or another doubt; inactive means no such curve, though single readings can be large; an effect the other way counts as inactive or inconclusive.

Field names – A = POLI inh; B = Anesthetic bind; C = Glioma ERSR ind; D = BLM inh; E = Pol kappa inh; F = LDHA inh
CC(C)NC(=O)c1cc2c(s1)CCCC2
  A = -4% | B = 0% | C = 1% | D = -2% | E = -3% | F = -1
O=C(Nc1ccccc1Oc1ccccc1)c1cccc([N+](=O)[O-])c1
  A = 12% | B = -20% | C = -3% | D = -5% | E = 0% | F = -4
Cc1sc(NC(=O)C2CC(Cl)=CCC2C(=O)O)c(C#N)c1C (stereo unspecified)
  A = 14% | B = -3% | C = -1% | D = -8% | E = -8% | F = 0
O=C(O)CNC(=O)C(CS)Cc1ccccc1 (stereo unspecified)
  A = -10% | B = / | C = 0%&0%&-3% | D = / | E = -15%[60.1 µM] | F = -4
CCc1ccccc1-n1c(SCC(=O)NC)nnc1-c1ccco1
  A = 19% | B = -6% | C = -1% | D = -1% | E = 4% | F = -11
CC(C(=O)NC(C)(C)C)N(Cc1cccs1)C(=O)CCN1CCc2ccccc21 (stereo unspecified)
  A = 54%[activator] | B = -10% | C = -4% | D = -3% | E = -19% | F = -1
Cc1[nH]c(=O)[nH]c(=O)c1S(=O)(=O)Nc1cccc(C(F)(F)F)c1
  A = 7% | B = 0% | C = 3% | D = -1% | E = 7% | F = -3
CC(C)(C)NC(=O)CSc1nc(O)cc(=O)[nH]1
  A = 11% | B = -5% | C = -3% | D = -11% | E = 0% | F = -6
CC1=C(C(=O)Nc2ccccc2)C(c2cccs2)n2nnnc2N1 (stereo unspecified)
  A = 13% | B = -6% | C = -2% | D = 3% | E = -11% | F = -9
CCC/C=N/NC(=O)c1cc(Br)ccc1O
  A = 17% | B = 9% | C = -2% | D = 8% | E = 2% | F = -5

(list continues)
Field names – A = POLI inh; B = Anesthetic bind; C = Glioma ERSR ind; D = BLM inh; E = Pol kappa inh; F = LDHA inh
CCC(C)N1CCCC1C(=O)Nc1c(C)cc(C)cc1C (stereo unspecified)
  A = -5% | B = 6% | C = -3% | D = -9% | E = -2% | F = -2
CSc1ncccc1C(=O)N(C)CC(=O)Nc1ccc(Cl)c(C(F)(F)F)c1
  A = 8% | B = -6% | C = -4% | D = -3% | E = -5% | F = -2
CC(=O)c1cc(C#N)c(N2CCCCC2)nc1C
  A = 18% | B = -13% | C = -2% | D = 7% | E = -4% | F = -12
CCOC(=O)c1cc2ccc3ccccc3c2oc1=O
  A = 15% | B = 759%[activator] | C = 2% | D = -12% | E = -3% | F = -1
CC(C)c1ccc(NC(=O)CCCC(=O)NCCc2ccccc2)cc1
  A = -13% | B = 3% | C = 2% | D = -1% | E = -17% | F = -16
CCCCNC(=O)Nc1ccccc1C(=O)NCc1ccco1
  A = ? | B = -18% | C = -3% | D = -1% | E = -9% | F = -8
Cc1ccc(C2(c3noc(CN4C[C@@H](C)O[C@@H](C)C4)n3)CCCC2)cc1
  A = -14% | B = -5% | C = -1% | D = -7% | E = -5% | F = -4
CCc1cccc(OCCCn2ccnc2)c1
  A = 201%[activator] | B = ? | C = -4% | D = 2% | E = -8% | F = -25
NCCCC[C@H]1CNC(=O)C(=O)N1CCCCC1CCCCC1
  A = 31% | B = 0% | C = -1% | D = 0% | E = -2% | F = -14
C=CCn1c(COc2ccc(Cl)cc2)nnc1SCC(=O)Nc1ccc(S(N)(=O)=O)cc1
  A = 64%[activator] | B = 4% | C = 0% | D = 4% | E = -1% | F = -7

(continued)
Field names – A = POLI inh; B = Anesthetic bind; C = Glioma ERSR ind; D = BLM inh; E = Pol kappa inh; F = LDHA inh
CC(C)[C@H](Nc1ccc(S(=O)(=O)N2CCOCC2)cc1[N+](=O)[O-])C(=O)OCC(=O)N(C(C)C)C(C)C
  A = 11% | B = ? | C = -3% | D = -13% | E = -7% | F = -3
Cc1cc(C)c2nc(N(CCN(C)C)C(=O)/C=C/c3cccs3)sc2c1
  A = 4% | B = -5% | C = -3% | D = 7% | E = -24% | F = 0
CCCNC(=O)c1c(NC(=O)C2COc3ccccc3O2)sc2c1CCCC2 (stereo unspecified)
  A = 6% | B = -4% | C = -1% | D = -9% | E = 2% | F = -6
Cc1cc(C)c(S(=O)(=O)Nc2cccc(/C=C/C(=O)O)c2)c(C)c1
  A = 149%[activator] | B = -1% | C = -2% | D = -3% | E = -8% | F = -1
CCOC(=O)C1CCN(C(=O)c2ccc3c(c2)NC(=O)/C(=C\c2ccc(C)cc2)S3)CC1
  A = 3% | B = -5% | C = -6% | D = -8% | E = 19% | F = 2
CC(C)c1cc(C(=O)N/N=C/c2ccoc2)c(O)c(C(C)C)c1
  A = -22% | B = ? | C = -5% | D = -13% | E = -7% | F = -1
NC1C2CN(c3nc4c(cc3F)c(=O)c(C(=O)O)cn4-c3ccc(F)cc3F)CC12 (stereo unspecified)
  A = -16% | B = -17% | C = -2%&-6% | D = -1% | E = -8% | F = 10
O=C(c1ccco1)N(CCC(c1ccccc1)c1ccco1)Cc1ccc(F)cc1 (stereo unspecified)
  A = ? | B = 55%[activator] | C = -2% | D = -10% | E = -23% | F = 5
CCOCCCn1c(=S)[nH]c2cc(C(=O)NCc3ccc(F)cc3)ccc2c1=O
  A = 0% | B = 0% | C = -1% | D = -3% | E = -13% | F = -5
CNCc1ccccc1Sc1ccc(OC)cc1
  A = -9% | B = -13% | C = -10% | D = 3% | E = -10% | F = 3

(cont.)
Field names – A = POLI inh; B = Anesthetic bind; C = Glioma ERSR ind; D = BLM inh; E = Pol kappa inh; F = LDHA inh
CC1CN(c2ccccc2)c2nc3c(c(=O)[nH]c(=O)n3C)n2C1 (stereo unspecified)
  A = 1% | B = -7% | C = -4% | D = -2% | E = -8% | F = ?
Oc1cccc(/C=N\Nc2nncc(-c3ccccc3)n2)c1
  A = 57%[activator] | B = -14% | C = 1% | D = 1% | E = -18% | F = -12
CN(C)CCN(C(=O)c1ccc2ccccc2c1)c1nc2ccc(Br)cc2s1
  A = 43% | B = -9% | C = -9% | D = 4% | E = 15% | F = 0
CCc1nnc(NC(=O)CSc2nnc(C3CC3)n2C)s1
  A = 13% | B = -2% | C = -6% | D = -11% | E = 3% | F = 2
COC(=O)c1cc(NC(=O)CN(c2cccc(OC)c2)S(=O)(=O)c2ccccc2)ccc1Cl
  A = 17% | B = 5% | C = -3% | D = -8% | E = -4% | F = -4
CCC(NS(=O)(=O)c1c(C)[nH]c(=O)[nH]c1=O)C12CC3CC(CC(C3)C1)C2 (stereo unspecified)
  A = 1% | B = -7% | C = -5% | D = -1% | E = -10% | F = -3
O=C(Nc1ccc(N2CCOCC2)cc1N1CCOCC1)c1ncoc1-c1cccc(F)c1
  A = 124%[activator] | B = -11% | C = -4% | D = -10% | E = -5% | F = -5
CC(=O)c1sc(N/N=C\c2ccc(Br)cc2)nc1C
  A = 5% | B = 4% | C = 5% | D = -2% | E = -17% | F = 1
Clc1ccccc1OCCn1ccnc1
  A = -7%[58.9 µM] | B = -19% | C = -8% | D = -1% | E = 2% | F = -24
O=C(O)c1cc(-c2ccccc2Cl)n[nH]1
  A = 296%[activator] | B = 2% | C = -2% | D = -2% | E = -6% | F = -10

Other entries follow:
Field names – A = POLI inh; B = Anesthetic bind; C = Glioma ERSR ind; D = BLM inh; E = Pol kappa inh; F = LDHA inh
N#C/C(=C\c1ccc(OCc2ccccc2)cc1)C(=O)Nc1ccc(C(=O)O)cc1
  A = ? | B = 2% | C = -2% | D = -9% | E = -6% | F = -3
CC(C)CCNC(=O)[C@@H](NC(=O)c1c(F)cccc1F)C(C)C
  A = 19% | B = -4% | C = -4% | D = -2% | E = 9% | F = -6
CCCCC(=O)NC(=S)NNC(=O)c1ccc(Cl)cc1Cl
  A = 157%[activator] | B = -9% | C = 0% | D = -9% | E = 1% | F = -4
CCN(CC)c1ccc(C(=O)OCc2cc(=O)oc3cc(O)ccc23)cc1
  A = ? | B = ? | C = -5% | D = -7% | E = -14% | F = 2
O=S(=O)(Cc1ccccc1Cl)c1ncn[nH]1
  A = -29% | B = 4% | C = -5% | D = -2% | E = -3% | F = -3
COC(=O)Oc1ccc(/C=N/NC(=O)CSCc2ccccc2Br)cc1OC
  A = 0% | B = ? | C = -2% | D = -9% | E = -4% | F = -1
CN1c2ccccc2Oc2c(c(=O)n(C)c(=O)n2C)C1c1cccc([N+](=O)[O-])c1 (stereo unspecified)
  A = 10% | B = -17% | C = -2% | D = -1% | E = -3% | F = -8
CCOC(=O)c1cc(C#N)c(N2CCN(C)CC2)nc1-c1ccccc1
  A = 38%[activator] | B = -17% | C = -3% | D = 5% | E = -8% | F = -2
Cc1ccc(S(=O)(=O)CC(=O)c2cc3cccc(C)c3oc2=O)cc1
  A = 11% | B = -3% | C = -8% | D = -5% | E = 3% | F = 3
COC(=O)c1c(NC(=O)C2COc3ccccc3O2)sc2c1CCN(C(C)=O)C2 (stereo unspecified)
  A = 9% | B = ? | C = -2% | D = -4% | E = -2% | F = 3
CCCCOc1ccccc1-c1cc(C(=O)O)[nH]n1
  A = 10% | B = -3% | C = -4% | D = 0% | E = 2% | F = -6

This is a subset. The share of hits here may be higher or lower than overall.
